ugtP null kill – compounds lethal to S. aureus RN4220 ugtP deletion mutant; growth inhibition, % (test concentration not listed); 330,000 compounds, 0.54% hits; OD600 growth, 16 h; some inactives read as strong as hits; AID 1259309;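 active means z-score under -3 and OD600 up to 0.15 on both plates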;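 further: plate controls were untreated wells for no effect and antibiotic for full effect; wells of about 80 µL received 100 nL stock; the first replicate is given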
Mtb hypoxia rep – reduces hypoxia-regulated biosensor signal in M. tuberculosis; M. tuberculosis hypoxia-regulated fluorescent reporter, fluorescence; fluorescence inhibition, % (test concentration not listed); 300,000 compounds, 0.1% hits;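 active means 35 to 45% if threefold the growth effect, above 45% if 1.5-fold the growth effect; inactive means the rest, general growth blockers included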;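 further: wells of about 50 µL received 100 nL stock; 0% = vehicle wells and 100% = reference inhibitor wells; whole bacteria with a GFP reporter of the hypoxia response; strong numbers were not always called active; many hits fall short of the cut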
BJeLR lethal – kills HRASV12-expressing BJeLR cells. BJeLR (HRASV12) viability, CellTiter-Glo ATP luminescence, 48 h; reference of the scale not given here. inhibition, % (concentration not given with the values). 300,000 compounds, 0.17% hits. AID 1554;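 active means replicate mean above 50%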;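 further: 50 nL library stock added to about 25 µL; numbers are from one replicate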
PrP 5UTR inh – suppresses PrP 5' UTR mRNA reporter expression | 340,000 compounds, 0.35% hits | inhibition, % (no concentration beside the values) | cell-based PrP 5' UTR mRNA reporter, plate reader;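 active means every replicate at 50% or more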;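 further: 0 = median of the neutral control wells; tested in H4 reporter cells; numbers are from one replicate; inactives centre near -14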
Bead autofluor – counter-screen for toxin protease inhibitors: compound fluorescence; 360,000 compounds, 3.1% hits; AID 624483; compound autofluorescence counterscreen, microsphere flow cytometry; active compounds read high; fluorescence intensity (no concentration beside the values);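 active means at least 3 SD above the mean of all compounds, about 16000 in these data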;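 further: 100 nL of 1 mM stock went into each well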
RN4220 kill – kills Staphylococcus aureus RN4220. inhibition, % (test concentration not listed). 330,000 compounds, 0.33% hits. S. aureus RN4220 growth, OD600, 16 h;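 active means z-score of -3 or lower and OD600 up to 0.18 on both plates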;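 further: plate controls were untreated cells for no effect and reference antibiotic for full effect; stock transfer was 100 nL into about 80 µL; one replicate is shown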
Mtb hypoxia rep growth – recorded beside Mtb hypoxia rep, whose call it bears; growth inhibition, %; measured here: M. tuberculosis growth (absorbance);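 0% = vehicle and 100% = reference antibiotic; read after six days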
* = called active by the depositor.

What do the screens show for `COC(=O)C1=C(c2ccc(Cl)c(C(F)(F)F)c2)CC2CCC1N2C(=O)NCc1ccc2c(c1)OCO2` (centres undefined)?
ugtP null kill: 3; Mtb hypoxia rep: 2; RN4220 kill: -2.0; Mtb hypoxia rep growth: -2

How did CCOC(=O)CSc1nnc(NC(=O)c2cccc(S(=O)(=O)N3CCCCC3)c2)s1 do in these assays?
ugtP null kill: -1; Mtb hypoxia rep: -2; BJeLR lethal: -7; PrP 5UTR inh: -4; Bead autofluor: 7310; RN4220 kill: 4.8; Mtb hypoxia rep growth: 13

What do the screens show for `N#CCc1nc(CSc2nc3ccccc3s2)cs1`?
ugtP null kill: 7; Mtb hypoxia rep: 2; BJeLR lethal: 0; PrP 5UTR inh: -81; Bead autofluor: 7466; RN4220 kill: 8.5; Mtb hypoxia rep growth: 7

What do the screens show for `O=C(OCCN1C(=O)c2ccccc2C1=O)c1cc2ccccc2o1`?
ugtP null kill: 0; Mtb hypoxia rep: 3; BJeLR lethal: -4; PrP 5UTR inh: -22; Bead autofluor: 11614; RN4220 kill: 7.8; Mtb hypoxia rep growth: -1

What do the screens show for `Cc1cccc(NC(=O)/C(C#N)=C/c2ccc(Cl)cc2)n1`?
ugtP null kill: 3; Mtb hypoxia rep: 15; BJeLR lethal: 8; PrP 5UTR inh: -26; Bead autofluor: 3439; RN4220 kill: 2.2; Mtb hypoxia rep growth: 9

How did Cc1noc(C)c1COc1cccc(C(=O)NC(C)(C)C)c1 do in these assays?
ugtP null kill: 6; Mtb hypoxia rep: 11; BJeLR lethal: 4; PrP 5UTR inh: -18; Bead autofluor: 4339; RN4220 kill: 2.8; Mtb hypoxia rep growth: 12

What do the screens show for `CN(CC(=O)Nc1ccc(N2CCOCC2)cc1)C(=O)C1CCCC1`?
ugtP null kill: 5; Mtb hypoxia rep: 3; BJeLR lethal: -6; PrP 5UTR inh: -19; Bead autofluor: 6136; RN4220 kill: 3.5; Mtb hypoxia rep growth: 1

What do the screens show for `Nc1cccc(Nc2ccccc2)c1`?
ugtP null kill: -12; Mtb hypoxia rep: 7; BJeLR lethal: 8; PrP 5UTR inh: -4; Bead autofluor: 4593; RN4220 kill: 9.3; Mtb hypoxia rep growth: 5

What do the screens show for `CCC(CO)Oc1cc(NC(=O)c2cccc3ccccc23)c2ncn(C(C)C)c2c1` (centres undefined)?
ugtP null kill: 17; Mtb hypoxia rep: -1; PrP 5UTR inh: -1; Bead autofluor: 3035; RN4220 kill: 19; Mtb hypoxia rep growth: 5

How did CN1c2ccc([N+](=O)[O-])cc2N(C)C1(C)c1ccccc1 (centres undefined) do in these assays?
ugtP null kill: 3; Mtb hypoxia rep: 10; BJeLR lethal: 3; PrP 5UTR inh: -17; Bead autofluor: 3164; RN4220 kill: -0.1; Mtb hypoxia rep growth: 1

How did O=C(NN=Cc1ccncc1)NC12CC3CC(CC(C3)C1)C2 do in these assays?
ugtP null kill: 0; Mtb hypoxia rep: 4; RN4220 kill: 6.8; Mtb hypoxia rep growth: 9

How did O=C(NC1CCCCC1)c1cc(C(=O)c2ccccc2Br)c[nH]1 do in these assays?
ugtP null kill: 10; Mtb hypoxia rep: 3; BJeLR lethal: 10; PrP 5UTR inh: 71*; Bead autofluor: 4702; RN4220 kill: -5.9; Mtb hypoxia rep growth: 1

How did Cc1ccc(-c2cc(=O)c3cc(C)ccc3[nH]2)cc1 do in these assays?
ugtP null kill: 7; Mtb hypoxia rep: 6; BJeLR lethal: 7; PrP 5UTR inh: 14; Bead autofluor: 3968; RN4220 kill: 5.5; Mtb hypoxia rep growth: 4

Results for O=C(NCCSCc1ccccc1)c1cc(S(=O)(=O)N2CCOCC2)ccc1F ?
ugtP null kill: 4; Mtb hypoxia rep: 4; PrP 5UTR inh: -13; Bead autofluor: 7957; RN4220 kill: 5.1; Mtb hypoxia rep growth: 8

Results for O=S(=O)(Nc1ccc(N2CCCCC2)cc1)c1cccs1 ?
ugtP null kill: 19; Mtb hypoxia rep: 22; BJeLR lethal: 1; PrP 5UTR inh: -24; Bead autofluor: 10793; RN4220 kill: 7.4; Mtb hypoxia rep growth: 33

Results for NS(=O)(=O)c1ccc(CCNC(=O)COC(=O)C2CCC2)cc1 ?
BJeLR lethal: -2; PrP 5UTR inh: -32; Bead autofluor: 5147

Results for COc1ccc(C(C)(C)C)cc1NC(=O)C1CC=CCC1C(=O)O (centres undefined) ?
ugtP null kill: 3; Mtb hypoxia rep: 4; BJeLR lethal: -9; PrP 5UTR inh: -17; Bead autofluor: 7995; RN4220 kill: 4.3; Mtb hypoxia rep growth: 5

How did CCOC(=O)N1CCN(C(=O)Cc2ccc(C)cc2)CC1 do in these assays?
ugtP null kill: 11; Mtb hypoxia rep: 6; BJeLR lethal: -9; PrP 5UTR inh: -12; Bead autofluor: 6840; RN4220 kill: 2.0; Mtb hypoxia rep growth: 4

How did CC1(C)C(=O)NCCN1C(=O)CSc1nccc(-c2ccc(Br)cc2)n1 do in these assays?
ugtP null kill: 7; Mtb hypoxia rep: 12; BJeLR lethal: 6; PrP 5UTR inh: -18; Bead autofluor: 12464; RN4220 kill: 6.4; Mtb hypoxia rep growth: 0

Results for O=C(CCc1nc2ccccc2c(=O)[nH]1)OCC(=O)c1cccc(Cl)c1 ?
ugtP null kill: 7; Mtb hypoxia rep: -4; BJeLR lethal: -12; PrP 5UTR inh: 5; Bead autofluor: 2098; RN4220 kill: 2.8; Mtb hypoxia rep growth: 3

What do the screens show for `COc1cccc(NC(=O)C2CCCN(c3ncnc4c3nc3n4CCCCC3)C2)c1` (centres undefined)?
ugtP null kill: 1; Mtb hypoxia rep: 7; BJeLR lethal: 7; PrP 5UTR inh: -11; Bead autofluor: 5599; RN4220 kill: 7.2; Mtb hypoxia rep growth: -3

How did CCCCCCNC(=O)Cc1ccc(Br)cc1 do in these assays?
ugtP null kill: -3; Mtb hypoxia rep: 12; BJeLR lethal: -4; PrP 5UTR inh: -12; Bead autofluor: 2651; RN4220 kill: -2.9; Mtb hypoxia rep growth: 5

What do the screens show for `Cc1ccc2cc(C3CC(c4ccco4)=NN3S(=O)(=O)c3ccccc3)c(Cl)nc2c1` (centres undefined)?
ugtP null kill: -19; Mtb hypoxia rep: -9; BJeLR lethal: -10; PrP 5UTR inh: 7; Bead autofluor: 3099; RN4220 kill: -5.5; Mtb hypoxia rep growth: 11

What do the screens show for `COc1ccc(/C=N/NS(=O)(=O)c2ccc(F)cc2)cc1COc1cc(F)ccc1[N+](=O)[O-]`?
BJeLR lethal: 5; PrP 5UTR inh: -1; Bead autofluor: 4500

Two entries picked at random from the list so far:
Results for O=C(CCc1nc2ccccc2c(=O)[nH]1)OCC(=O)c1cccc(Cl)c1 ?
ugtP null kill: 7; Mtb hypoxia rep: -4; BJeLR lethal: -12; PrP 5UTR inh: 5; Bead autofluor: 2098; RN4220 kill: 2.8; Mtb hypoxia rep growth: 3

Results for NS(=O)(=O)c1ccc(CCNC(=O)COC(=O)C2CCC2)cc1 ?
BJeLR lethal: -2; PrP 5UTR inh: -32; Bead autofluor: 5147

New compounds follow.
What do the screens show for `Nc1sc2c(c1C(=O)NC1CCS(=O)(=O)C1)CCCC2` (centres undefined)?
ugtP null kill: 8; Mtb hypoxia rep: 1; BJeLR lethal: 8; PrP 5UTR inh: -2; Bead autofluor: 5810; RN4220 kill: 1.7; Mtb hypoxia rep growth: 5

How did CC(C)N(Cc1nc(-c2ccccc2)no1)S(=O)(=O)c1ccccc1 do in these assays?
ugtP null kill: 24; Mtb hypoxia rep: 3; BJeLR lethal: 12; PrP 5UTR inh: -4; Bead autofluor: 4358; RN4220 kill: 5.9; Mtb hypoxia rep growth: 4

What do the screens show for `CCC(C(=O)NNC(=O)c1cnccn1)c1ccccc1` (centres undefined)?
ugtP null kill: 1; Mtb hypoxia rep: -12; BJeLR lethal: 1; PrP 5UTR inh: -21; Bead autofluor: 8339; RN4220 kill: 8.3; Mtb hypoxia rep growth: -3

How did O=c1cc(Nc2ccc3c(c2)OCCO3)[nH]c(=O)n1-c1ccc(Cl)cc1 do in these assays?
ugtP null kill: 9; Mtb hypoxia rep: 6; BJeLR lethal: 3; PrP 5UTR inh: -11; Bead autofluor: 5421; RN4220 kill: 9.1; Mtb hypoxia rep growth: 6

What do the screens show for `C=CCc1c(C)nc(C)nc1N/N=C/c1ccc([N+](=O)[O-])cc1`?
BJeLR lethal: 1; PrP 5UTR inh: 1; Bead autofluor: 4778

Results for CC(=O)c1ccc(N(CC(=O)NC2CCCC2)C(=O)c2csnn2)cc1 ?
ugtP null kill: 8; Mtb hypoxia rep: 6; BJeLR lethal: -3; PrP 5UTR inh: -21; Bead autofluor: 3261; RN4220 kill: 3.2; Mtb hypoxia rep growth: 1

What do the screens show for `CCCN1CC=C2C(C#N)=C(N)C(C#N)(C#N)C(c3cc(OC)ccc3OC)C2C1` (centres undefined)?
ugtP null kill: 1; Mtb hypoxia rep: 4; BJeLR lethal: -5; PrP 5UTR inh: -9; Bead autofluor: 4118; RN4220 kill: 2.3; Mtb hypoxia rep growth: 4

How did COc1ccc2nc(C)cc(SCC(=O)NN=Cc3ccc(O)c(O)c3)c2c1 do in these assays?
ugtP null kill: 1; Mtb hypoxia rep: 13; RN4220 kill: 7.1; Mtb hypoxia rep growth: -2

How did CCOc1ccc(NC(=O)Nc2c(C)n(C)n(-c3ccccc3)c2=O)cc1 do in these assays?
ugtP null kill: 6; Mtb hypoxia rep: -4; BJeLR lethal: -4; PrP 5UTR inh: -1; Bead autofluor: 4131; RN4220 kill: 2.5; Mtb hypoxia rep growth: -10

Results for O=C(NNC(=S)NC(=O)c1ccccc1)c1cccnc1 ?
ugtP null kill: -4; Mtb hypoxia rep: -9; BJeLR lethal: -6; PrP 5UTR inh: -15; Bead autofluor: 5426; RN4220 kill: 13; Mtb hypoxia rep growth: -4

Results for Cc1cccc(/C=N/n2c(C)nc3ccccc3c2=O)c1 ?
BJeLR lethal: -4; PrP 5UTR inh: -9; Bead autofluor: 3730

What do the screens show for `Cc1cc(=O)[nH]c(SCC(=O)NC(c2ccccc2)c2ccccc2)n1`?
ugtP null kill: 10; Mtb hypoxia rep: 12; BJeLR lethal: -8; PrP 5UTR inh: -13; Bead autofluor: 3449; RN4220 kill: 11; Mtb hypoxia rep growth: 0

What do the screens show for `O=C(Nc1cccc2ncccc12)c1ccc(F)cc1`?
ugtP null kill: 1; Mtb hypoxia rep: 10; BJeLR lethal: 10; PrP 5UTR inh: -14; Bead autofluor: 2654; RN4220 kill: 4.2; Mtb hypoxia rep growth: 4

How did CCNc1nc(NCC)nc(C(=O)Nc2ccccc2)n1 do in these assays?
BJeLR lethal: 4; PrP 5UTR inh: 4; Bead autofluor: 3133

How did C/C=C(\C)CN1CCN(c2cccc(C)c2C)CC1 do in these assays?
ugtP null kill: 12; Mtb hypoxia rep: 18; BJeLR lethal: 1; PrP 5UTR inh: -29; Bead autofluor: 9505; RN4220 kill: 2.9; Mtb hypoxia rep growth: 3

Results for CCN(c1ccc(OC)cc1)S(=O)(=O)c1ccc2c(c1)CC(C)N2C(=O)C1CC1 (centres undefined) ?
ugtP null kill: 5; Mtb hypoxia rep: 4; BJeLR lethal: 12; PrP 5UTR inh: -28; Bead autofluor: 5045; RN4220 kill: 9.2; Mtb hypoxia rep growth: 4

What do the screens show for `Cn1cc(C(c2ccccn2)c2cn(C)c3ccccc23)c2ccccc21`?
ugtP null kill: 49; Mtb hypoxia rep: 0; BJeLR lethal: 22; PrP 5UTR inh: -13; Bead autofluor: 4845; RN4220 kill: -12; Mtb hypoxia rep growth: 21

What do the screens show for `CN(CC(=O)Nc1ncn[nH]1)S(=O)(=O)c1cc(Cl)ccc1Cl`?
ugtP null kill: -4; Mtb hypoxia rep: -1; BJeLR lethal: 1; PrP 5UTR inh: -17; Bead autofluor: 6255; RN4220 kill: 4.8; Mtb hypoxia rep growth: -3

In the list so far, these have a tert-butyl group:
How did Cc1noc(C)c1COc1cccc(C(=O)NC(C)(C)C)c1 do in these assays?
ugtP null kill: 6; Mtb hypoxia rep: 11; BJeLR lethal: 4; PrP 5UTR inh: -18; Bead autofluor: 4339; RN4220 kill: 2.8; Mtb hypoxia rep growth: 12

Results for COc1ccc(C(C)(C)C)cc1NC(=O)C1CC=CCC1C(=O)O (centres undefined) ?
ugtP null kill: 3; Mtb hypoxia rep: 4; BJeLR lethal: -9; PrP 5UTR inh: -17; Bead autofluor: 7995; RN4220 kill: 4.3; Mtb hypoxia rep growth: 5
